# Rce1 inh: yeast Ras-converting enzyme inhibition; Q03530; yeast membranes, quenched prenylated peptide cleavage fluorescence; calls only; 290,000 compounds, 0.27% hits; AID 2563;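 active means fall in fluorescence gain of 50% or more versus controls, with final raw signal at or below 3038400; inconclusive means same 50% fall but final raw signal above 3038400; inactive means fall in fluorescence gain under 50%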;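 further: plate controls were neutral control wells for no effect and wells lacking membranes for full effect; tested at 10 µM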
# Env fusion inh: inhibitors of HIV Env-mediated cell fusion; HeLa-JRFL Env/CEM21 cell fusion, luciferase; 360,000 compounds, 1.1% hits; AID 651610; inhibition, % at 12.3 µM;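 active means mean replicate inhibition score of at least 50 and every replicate individually at or above 50; inconclusive means only one of the two criteria met; inactive means mean below 50 and not all replicates reaching 50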;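 further: 0% = plate neutral controls and 100% = maraviroc near 300 nM; one replicate is shown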
# eIF4H inh: inhibitors of RNA binding by human eIF4H; eIF4H fluorescence polarization binding assay; Q15056; inhibition, % at 35 µM; 290,000 compounds, 0.94% hits;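 active means 50% or more with normal probe brightness, or confirmed in later tests; inconclusive means above 50% with abnormal brightness, or retests that disagree; inactive means below 50% or failed in later tests; about a fifth of its hits are not listed in these tables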;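 further: calls also rest on retests at 20 µM and on dose response follow-up; 0% = protein and probe with vehicle and 100% = probe without protein; strong numbers were not always called active; many hits fall short of the cut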
# CSC inhib: cancer stem cell inhibition; inhibition, % at 7.5 µM; AID 2717; 300,000 compounds, 1.1% hits; cancer stem cell-like cells viability, luminescence;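 active means mean at 75% or more and at least half the replicates too; inconclusive means mean and replicates disagree; tested in HMLE shEcad cells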;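 further: 0% = median of negative and 100% = median of positive control wells; the first replicate is given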
# MT1-MMP act inh: blocks activation of human MT1-MMP | 360,000 compounds, 0.061% hits | HT1080 RFP-PRO-GFP cells, GFP/RFP ratio fluorescence, overnight; percent of plate control window, DMSO zero | P50281 | GFP/RFP ratio change, % at 20 µM | AID 651647;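 active means GFP/RFP ratio change of at least 30% with cell ATP level not reduced by more than half and red fluorescence within 50% of control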; further: strong numbers were not always called active
#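 Read-out: GFP/RFP fluorescence ratio; Test system: RFP-PRO-GFP reporter HT1080 cells; Compound dosing: single-point 20 µM compound, 1% DMSO; Times: overnight compound exposure at 37 °C.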
# PABP polyA inh: PABP-poly(A) binding inhibition. AID 2014. PABP-poly(A) RNA binding, fluorescence polarization. 290,000 compounds, 1% hits. inhibition, % at 35 µM. P11940;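 active means 50% or more with normal probe brightness, or confirmed in later tests; inconclusive means above 50% with abnormal brightness, or retests that disagree; inactive means below 50% or failed in later tests; about a fifth of its hits are not listed in these tables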;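 further: calls also rest on retests at 20 µM and on dose response follow-up; controls were probe without protein and protein plus probe with vehicle; some compounds called inactive have numbers as strong as hits; many hits fall short of the cut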
# Target sequence (P11940 whole entry, looked up): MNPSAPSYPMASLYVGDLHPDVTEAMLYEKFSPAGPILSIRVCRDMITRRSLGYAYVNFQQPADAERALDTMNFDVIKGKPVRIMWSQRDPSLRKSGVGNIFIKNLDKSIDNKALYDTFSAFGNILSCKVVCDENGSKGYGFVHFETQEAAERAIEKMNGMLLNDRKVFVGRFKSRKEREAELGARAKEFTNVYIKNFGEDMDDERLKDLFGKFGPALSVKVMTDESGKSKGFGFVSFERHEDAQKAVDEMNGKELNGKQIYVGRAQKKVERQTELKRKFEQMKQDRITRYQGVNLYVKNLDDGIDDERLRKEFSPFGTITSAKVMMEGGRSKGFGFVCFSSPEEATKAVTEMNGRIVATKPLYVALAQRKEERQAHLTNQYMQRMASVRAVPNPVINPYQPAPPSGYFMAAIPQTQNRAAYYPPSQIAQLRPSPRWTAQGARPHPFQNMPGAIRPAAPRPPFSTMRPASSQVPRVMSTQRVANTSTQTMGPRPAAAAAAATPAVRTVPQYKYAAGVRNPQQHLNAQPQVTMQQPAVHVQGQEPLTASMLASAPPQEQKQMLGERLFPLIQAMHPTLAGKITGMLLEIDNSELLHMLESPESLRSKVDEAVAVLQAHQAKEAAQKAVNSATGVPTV
# Yeast UUG start: alters start codon recognition fidelity in yeast; 350,000 compounds, 0.13% hits; activity score, % at 18.7 µM; AID 602363; S. cerevisiae UUG-firefly luciferase reporter, luminescence/redox ratio;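 active means replicate mean at a twofold rise or more, about +100% in these data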;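 further: firefly luciferase made from a UUG start codon reports start codon fidelity; reporter light over untreated wells divided by growth signal over untreated wells; some hits fall short of that in this replicate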
# eIF4H inh retest: recorded beside eIF4H inh, whose call it bears; inhibition, %; compound at 20 µM; confirmation average;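 mean of two retest wells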
# PABP polyA inh retest: also measured in PABP polyA inh; calls as there; inhibition, %; compound at 20 µM; confirmation repeats;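 mean of two retest wells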
# MT1-MMP act inh RFP: also measured in MT1-MMP act inh; calls as there; RFP signal change, %; measured here: RFP expression control read;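 0 = vehicle wells; hits needed this value within 50% of zero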
# * hit, by the source's call; i = inactive; u = inconclusive; x = no result given. Only part of the results is shown; rates above refer to the full screens.
# A first look:
SMILES,Rce1 inh,Env fusion inh,eIF4H inh,CSC inhib,MT1-MMP act inh,MT1-MMP act inh RFP,PABP polyA inh,Yeast UUG start,others
COc1cccc(NC(=O)/C=C/c2ccc(S(=O)(=O)N3CCOCC3)cc2)c1,x,-7,x,-9,12,-10,x,10,
Cc1ccc(S(=O)(=O)C/N=C(/NC(=S)N(c2ccccc2)c2ccccc2)c2ccccc2)cc1,i,x,1,-13,5,1,4,-14,
CNC(=O)COc1ccccc1C(=O)Nc1ccc2c(c1)oc1ccccc12,i,-110,-4,4,-2,-7,-1,-8,
CCOc1ccccc1OCCN1CCCC1,i,7,84,-1,2,4,3,-19,eIF4H inh retest=-2;PABP polyA inh retest=17
O=c1c2ccccc2nc(/C=C/c2cc(Br)ccc2O)n1CCO,x,33,x,53,-8,-8,x,-7,
COCCn1nnnc1CN1CCN2CCCC2C1 (stereo not drawn),i,x,1,-1,-8,2,13,-13,
CN1CCN(c2ccc(-c3ccnn3C(=O)Nc3ccccc3)cc2)CC1,i,6,-11,6,0,3,-3,x,
COc1cc(C2CC(=O)C=C(O)C2)cc(OC)c1OC (stereo not drawn),i,-23,-7,-11,3,4,-4,516*,
COC(=O)c1c(C(=O)OC)c2n(c1C)CCC2,i,-69,-8,13,1,0,-4,-6,
COc1cc(OC)cc(/C(N)=N/O)c1,i,-12,5,-4,0,2,-6,x,
[2H]c1c([2H])c([2H])c(-c2nc(N3CCCCCC3)sc2C(=O)c2ccccc2)c([2H])c1[2H],i,x,11,45,-7,-7,2,-5,
Cc1ncc(CO)c(/C=N/NC(=S)Nc2ccc(Cl)c(Cl)c2)c1O,i,9,10,58,-1,3,15,x,
CC(C)(C)c1ccc(C(=O)CCC(=O)NCc2ccccc2)cc1,x,11,x,x,1,0,x,-11,

# All compounds of this part (from the top)
SMILES,Rce1 inh,Env fusion inh,eIF4H inh,CSC inhib,MT1-MMP act inh,MT1-MMP act inh RFP,PABP polyA inh,Yeast UUG start,others
COc1cccc(NC(=O)/C=C/c2ccc(S(=O)(=O)N3CCOCC3)cc2)c1,x,-7,x,-9,12,-10,x,10,
Cc1ccc(S(=O)(=O)C/N=C(/NC(=S)N(c2ccccc2)c2ccccc2)c2ccccc2)cc1,i,x,1,-13,5,1,4,-14,
CNC(=O)COc1ccccc1C(=O)Nc1ccc2c(c1)oc1ccccc12,i,-110,-4,4,-2,-7,-1,-8,
CCOc1ccccc1OCCN1CCCC1,i,7,84,-1,2,4,3,-19,eIF4H inh retest=-2;PABP polyA inh retest=17
O=c1c2ccccc2nc(/C=C/c2cc(Br)ccc2O)n1CCO,x,33,x,53,-8,-8,x,-7,
COCCn1nnnc1CN1CCN2CCCC2C1 (stereo not drawn),i,x,1,-1,-8,2,13,-13,
CN1CCN(c2ccc(-c3ccnn3C(=O)Nc3ccccc3)cc2)CC1,i,6,-11,6,0,3,-3,x,
COc1cc(C2CC(=O)C=C(O)C2)cc(OC)c1OC (stereo not drawn),i,-23,-7,-11,3,4,-4,516*,
COC(=O)c1c(C(=O)OC)c2n(c1C)CCC2,i,-69,-8,13,1,0,-4,-6,
COc1cc(OC)cc(/C(N)=N/O)c1,i,-12,5,-4,0,2,-6,x,
[2H]c1c([2H])c([2H])c(-c2nc(N3CCCCCC3)sc2C(=O)c2ccccc2)c([2H])c1[2H],i,x,11,45,-7,-7,2,-5,
Cc1ncc(CO)c(/C=N/NC(=S)Nc2ccc(Cl)c(Cl)c2)c1O,i,9,10,58,-1,3,15,x,
CC(C)(C)c1ccc(C(=O)CCC(=O)NCc2ccccc2)cc1,x,11,x,x,1,0,x,-11,
Cc1cccc(C(=O)OCC(=O)NC(C)C2CC3CCC2C3)c1O (stereo not drawn),x,x,x,-5,3,3,x,-13,
CC(=O)Nc1ccc(C(=O)NC(CC(=O)O)c2ccc(Cl)cc2)cc1 (stereo not drawn),i,-8,3,7,2,1,3,-4,
Cn1c(=O)c2[nH]c(COc3ccc(C(C)(C)C)cc3)nc2n(C)c1=O,i,x,-6,28,-10,-28,-9,x,
CCOC(=O)c1cc(=O)n2[nH]c(-c3ccc(C)cc3)cc2n1,i,x,3,5,5,7,2,-15,
O=C(CN1C(=O)C2C3c4ccccc4C(c4ccccc43)C2C1=O)Nc1ccccc1C(=O)O (stereo not drawn),i,-16,-3,-10,3,0,-1,-10,
COc1ccccc1CN(Cc1cc2cc3c(cc2[nH]c1=O)OCCO3)Cc1nnnn1Cc1ccco1,i,8,58*,x,-20,3,41*,3,eIF4H inh retest=78*;PABP polyA inh retest=63*
Cc1ccc(NC(=O)CCn2nc(C)cc2C)c(C)c1,i,x,-9,-3,-5,-3,7,-7,

# The closing 2 compounds of the part above come first, to join the parts:
SMILES,Rce1 inh,Env fusion inh,eIF4H inh,CSC inhib,MT1-MMP act inh,MT1-MMP act inh RFP,PABP polyA inh,Yeast UUG start,others
COc1ccccc1CN(Cc1cc2cc3c(cc2[nH]c1=O)OCCO3)Cc1nnnn1Cc1ccco1,i,8,58*,x,-20,3,41*,3,eIF4H inh retest=78*;PABP polyA inh retest=63*
Cc1ccc(NC(=O)CCn2nc(C)cc2C)c(C)c1,i,x,-9,-3,-5,-3,7,-7,
CCOC(=O)N(C)c1c(CC)nc2c(OCc3ccc(F)c(F)c3)cccn12,x,17,x,x,0,-4,x,-7,
CSc1nc(N)nc(SCC(=O)c2ccccc2)c1C#N,i,x,-1,14,-1,-3,3,-2,
Cc1ccc2c(c1)nnn2C1CCN(S(=O)(=O)c2ccc(C(=O)NC3CCCC3)cc2)CC1,i,u,-8,5,0,-18,5,-13,
O=C(CSc1nnnn1C1CC2C=CC1C2)Nc1ccc(C(=O)O)cc1 (stereo not drawn),i,46,x,-9,7,1,x,x,
CCOc1cccc2c1OC(c1cc(OC)c(OC)c(OC)c1)N1N=C(c3ccc(C)o3)CC21 (stereo not drawn),x,x,-3,7,-16,16,-7,x,
CC1CN(c2ccccc2)c2nc3c(c(=O)[nH]c(=O)n3C)n2C1 (stereo not drawn),i,-3,8,3,10,7,-1,-6,
O=C(NC(=S)NCc1ccco1)c1ccc([N+](=O)[O-])cc1,x,-34,x,3,2,5,x,x,
CCCN1CCN(CC(O)COC(c2ccc(OC)cc2)c2ccc(OC)cc2)CC1 (stereo not drawn),i,4,4,7,1,2,1,-9,
CCCCn1c(-c2ccc(Br)cc2F)nc2c1c(=O)[nH]c(=O)n2CC(C)C,i,12,-1,-27,-2,-5,9,4,
Cc1ccc(C)c2c3c([nH]c12)-c1nonc1CC3,i,x,-5,-11,-3,-3,-2,-26,
CC1CCCN(C(=O)Cn2nnc(-c3ccc(N(C)C)cc3)n2)C1 (stereo not drawn),i,x,-7,1,1,-3,-2,0,
O=C(Nc1cccc(S(=O)(=O)N2CCCCC2)c1)C1COc2ccccc2O1 (stereo not drawn),x,5,x,-18,5,-7,x,x,
CC(=O)N1CCc2cc(S(=O)(=O)Nc3ccc(C)cc3)ccc21,i,12,-10,4,2,-8,-7,-19,
Cc1csc(NC(=O)c2cccs2)n1,i,x,4,-13,4,6,0,-21,
C=CCn1c(-c2ccc(=O)n(Cc3ccccc3)c2)n[nH]c1=S,i,x,13,-7,x,x,0,x,
O=C(Nc1nc2nc(-c3ccccc3)cc(=O)n2[nH]1)c1ccccc1,i,x,-12,5,4,6,8,-17,
CCS(=O)(=O)N1Cc2ccccc2CC1C(=O)Nc1ncc(C)s1 (stereo not drawn),i,-23,-2,-2,2,1,10,x,
CCOc1ccc(-n2nnc3c(=O)n(CC(=O)NCc4ccco4)cnc32)cc1,i,0,8,-14,3,1,-3,-18,
O=C(O)Cc1csc(-c2ccccc2)n1,i,-14,7.1*,-5,1,-1,53,x,eIF4H inh retest=77*;PABP polyA inh retest=43
Cc1sc(NC(=S)NC(=O)c2ccco2)c(C(N)=O)c1C,i,-12,32,x,0,4,0,x,
COCCCNC(=O)Cn1ncc2ccsc2c1=O,i,-11,10,-13,-1,3,-2,-13,
CCCCOc1ccc2ccccc2c1C=O,i,-60,-3,-21,0,-1,4,-11,
CC(C)c1ccc(C(C)NC(=S)NC2CCCCC2)cc1 (stereo not drawn),i,5,-3,-12,-1,-14,12,-30,
COc1cccc(CC(=O)Nc2ccccc2N2CCCC2)c1,i,-42,7,5,-2,-2,40,-11,
N#C/C(=C\c1ccccc1[N+](=O)[O-])c1nc(C2CC2)cs1,i,-65,10,3,2,-3,-8,-19,
COc1ccc(CN(Cc2cccn2C)S(=O)(=O)c2ccccc2)cc1,i,19,2,-11,-2,-3,-10,x,
O=C(CN1C(=O)c2ccccc2C1=O)NCC(=O)OCC(=O)c1ccc(Br)cc1,i,x,7,-7,0,4,-7,x,
Cc1cccc(C(C)C)c1NC(=O)COC(=O)CCC(=O)N(CC(C)C)c1c(N)n(CC(C)C)c(=O)[nH]c1=O,x,0,x,x,-1,5,x,0,
CCc1cc2c(N[C@@H](C)C(=O)O)ncnc2s1,i,x,-1,x,9,3,1,-9,
CCOC(=O)CNC(=O)CSc1ccc(-c2nc3ccccc3[nH]2)cn1,x,-5,6,-3,3,1,11,-3,
CCCn1nc2cc(C(=O)NCc3ccc(C)cc3)ccc2c1OC,i,-28,-11,-8,-2,6,12,-13,
O=C(NNS(=O)(=O)c1ccc2ccccc2c1)c1cccnc1,i,24,8,-5,-1,2,-1,-17,
Cc1nc2c(C)cccn2c1/C(O)=C1\C(=O)C(=O)N(CCN(C)C)C1c1ccccc1 (stereo not drawn),i,-5,-6,-3,0,-1,-3,x,
COc1cc(OC)cc(-c2c(-c3cccs3)c3cc(-c4cc(OC)c(OC)c(OC)c4)ccc3n2C)c1,x,28,x,16,-12,-3,x,-7,
CC1=C(C(N)=O)C(c2ccccc2F)NC(=O)N1 (stereo not drawn),i,x,6,-4,-5,0,15,-9,
N#CCc1c[nH]c2ccc([N+](=O)[O-])cc12,x,23,x,x,-10,-5,x,-10,
C#CCOC(=O)c1csc2nnsc12,i,-49,-5,-7,-2,2,-6,-19,
C=CCn1c(SCC(=O)Nc2ccc(O)cc2)nc2sc(C)c(C)c2c1=O,x,-5,x,x,-1,-2,x,-22,
O=S(=O)(Nc1nc2ccccc2nc1Cl)c1ccc(Cl)cc1,i,17,-1,7,-7,-3,2,-17,
O=C(COC(=O)C12CC3CC(CC(O)(C3)C1)C2)Nc1ccccc1OC(F)F,i,-29,-6,x,4,7,-2,24,
Cc1ccc(OCCSc2nc(NC(C)C)nc(NC(C)C)n2)cc1,i,x,-2,90*,-11,-17,-3,x,
COc1ccccc1C1/C(=C(/O)c2ccc(OC(C)C)cc2)C(=O)C(=O)N1c1cc(C)on1 (stereo not drawn),i,-5,-7,-1,1,-2,16,-5,
N#Cc1ccccc1OCC(=O)NC(=O)NC1CCS(=O)(=O)C1 (stereo not drawn),x,-10,x,x,-1,3,x,2,
Cc1ccc(CNC(=O)C(Cc2ccccc2)NS(=O)(=O)c2cccs2)cc1 (stereo not drawn),i,9,-7,x,-7,-3,-5,-1,

# Bioassay records (PubChem)
